Screens from PubChem.
VDR inhibitor – vitamin D3 receptor (human) inhibition | P11473 | VDR-SRC2-3 peptide fluorescence polarization, 2 h | Potency, µM, for the others: max response, negative = inhibition, hits mostly inhibitors | 0.93% of 400,000 active | AID 504847; active = well fitted inhibition curve with a large enough effect; inconclusive = small, poorly fitted or top-dose-only effect, or another doubt; inactive = no such curve, though single readings can be large or run the other way; note: series mostly up to about 120 µM
Target sequence (P11473 whole entry, looked up): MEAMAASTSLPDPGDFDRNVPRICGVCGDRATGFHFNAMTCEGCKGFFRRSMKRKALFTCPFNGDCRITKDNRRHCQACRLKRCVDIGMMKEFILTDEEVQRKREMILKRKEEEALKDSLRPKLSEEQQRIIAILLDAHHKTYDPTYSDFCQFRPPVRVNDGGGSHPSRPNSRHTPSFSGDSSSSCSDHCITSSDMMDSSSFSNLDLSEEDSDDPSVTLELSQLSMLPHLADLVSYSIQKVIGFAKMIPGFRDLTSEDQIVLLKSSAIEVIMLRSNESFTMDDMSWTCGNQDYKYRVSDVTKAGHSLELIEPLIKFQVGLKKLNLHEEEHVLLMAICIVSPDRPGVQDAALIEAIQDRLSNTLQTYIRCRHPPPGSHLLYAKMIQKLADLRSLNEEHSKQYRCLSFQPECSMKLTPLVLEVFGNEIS
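Inhibition of the VDR/SRC2-3 peptide interaction is quantified by fluorescence polarization. Compounds (23 nl, pintool) incubate with the reagents for 2 hours at ambient room temperature.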
Active calls of the source: *; ? = inconclusive; & = joins results of further samples; [ ] = another dose, or the depositor's remark. % is set by controls: 0 for no effect and ±100 for the full control effect; potency is the fitted concentration of half-maximal effect. The list is partial; the hit share may differ from the screen's.

SMILES	VDR inhibitor
CC(C)(C)NC(=O)C(c1cccs1)N(Cc1cccs1)C(=O)c1ccc(CN2CCOCC2)o1 (configuration not stated)	-3.9%
O=C(COC(=O)CNC(=O)c1ccccc1F)Nc1cccc(S(=O)(=O)N2CCCCCC2)c1	-11.2%
COc1cccc(C(=O)Nc2ccc(C(F)(F)F)n(C)c2=O)c1	-11.9%
CCOc1ccccc1N1CC(C(=O)N2CCOCC2)CC1=O (configuration not stated)	16.9%
O=C(NCc1ccc(F)cc1)C1CCN(S(=O)(=O)c2cccc3nonc23)CC1	12.6%
Cc1ccc(Cn2c(=O)n(CCCC(=O)NCc3ccccc3Cl)c(=O)c3ccccc32)cc1	89.1µM*
CCC(=O)c1ccc(OCC(O)CNCCc2ccc(Cl)cc2)cc1 (configuration not stated)	12.7%
O=C1CC(N2CCC(Cc3ccccc3)CC2)C(=O)N1CCc1ccccc1 (configuration not stated)	-2.1%
CC(C)(C)OC(=O)C[C@@H]1C/C=C\C[C@H](CC(=O)N(CCO)Cc2ccccc2)C(=O)N2CCC[C@H]2COC1=O	-7.4%
CSc1nc2ccccc2cc1/C=C(\C#N)c1ccccc1	-4.5%
Cn1c(=O)c(C(=O)N2CCc3ccccc32)cc2cccnc21	3.7%
C=CCOc1c(CNc2cccc(C(=O)O)c2)cccc1OCC	7.9%
COc1ccc(N2CCCn3c2nc2c3c(=O)n(CCN3CCOCC3)c(=O)n2C)cc1	5.5%
O=C(Cn1cc(SCc2ccccc2)c2ccccc21)N1CCCCCC1	1.1%
COc1ccc(CSc2nc3ncccc3[nH]2)cc1	9.2%
O=S(=O)(NCCC1=CCCCC1)c1ccc(OC(F)(F)F)cc1	-25.6%
COc1ccc(-n2nc(C(=O)NCC(=O)NCc3ccco3)c3ccccc3c2=O)c(OC)c1	2.3%
O=S(=O)(N1CCCCC1)N1CCN(CC(O)COc2ccc3cc(Br)ccc3c2)CC1 (configuration not stated)	-7.6%
C=CSc1sc(Cl)c(N(CC)CC)c1[N+](=O)[O-]	-27.4%
COCc1cc(C)n(CC(=O)Nc2ccccc2OC)c(=O)c1C#N	?
CCN(CC)C(=O)COc1ccc(-c2ccccc2)cc1	-1.7%
CC1=C(C(=O)Nc2cc(Cl)ccc2C)C(c2ccco2)n2ncnc2N1 (configuration not stated)	6.9%
Cc1ccc2cc3c(N)c4c(C)ccc(C)c4nc3nc2c1	?
Cc1cc(C)cc(OCC(=O)Nc2cccc(-c3nc4ccccc4[nH]3)c2)c1	-19.0%
O=C(Cc1coc2ccc3ccccc3c12)N1CCN(c2ncccn2)CC1	10.6%

In a second layout: 2 of the compounds above.
structure,VDR inhibitor
O=S(=O)(N1CCCCC1)N1CCN(CC(O)COc2ccc3cc(Br)ccc3c2)CC1 (configuration not stated),-7.6%
C=CSc1sc(Cl)c(N(CC)CC)c1[N+](=O)[O-],-27.4%

Next records
SMILES	VDR inhibitor
Cc1ccc(NCc2nc3ccccc3n2CCOc2ccccc2C)cc1	1.3%
C[N+]1(CC2COC(c3ccccc3)(C3CCCCC3)O2)CCCCC1 (configuration not stated)	0.6%
Cc1nnc(NC(=O)c2ccc(S(=O)(=O)N3CCCCC3C)cc2)o1 (configuration not stated)	-4.6%
CCc1nc2ccccc2n1Cc1cc(=O)n2cc(C)ccc2n1	-0.7%
Cc1ccc(-c2ccccc2)n1-c1ccc(C(=O)O)cc1	-8.8%
CNC(=O)c1ccsc1NC(=O)C1CCN(S(=O)(=O)c2ccc(Cl)s2)CC1	31.1%[activator]
FC(F)(F)c1nnc(Nc2ccc(Cl)cc2)s1	-4.5%
COc1ccc(OCC(=O)OC2CCCN(C)C2)cc1 (configuration not stated)	5.0%
CCOC(=O)N1CCN(c2ccnc3cc(Cl)ccc23)CC1	1.2%
O=C(O)CCN1C(=O)C2C3CC(C2C1=O)C1C(c2ccccc2)c2sc(=O)n(-c4ccccc4)c2SC31 (configuration not stated)	?
CC(C)c1ccc(NC(=S)N(C)CCc2ccccn2)cc1	-5.0%
COc1cc(/C=C2\SC(N)=NC2=O)ccc1OCC(=O)Nc1ccc(C)cc1	14.7%
CC1(C)Cc2cccc(OCC(=O)Nc3ccccc3C(F)(F)F)c2O1	-18.1%
O=C(Oc1nsnc1N1CCOCC1)c1ccccc1	-13.3%
Cc1ccc(S(=O)(=O)N(CC(=O)NCC2CCCO2)Cc2cccc(C)c2)cc1 (configuration not stated)	-24.4%
CCOc1cc(CNC(=O)c2ccccc2NC(=O)c2nsc3ccccc23)ccc1OC	10.2%
CC(=O)c1ccc(OCC(=O)c2cc(C)n(-c3ccc4c(c3)OCO4)c2C)cc1	-12.4%
Cc1nc2ccccc2c2c(N)c3ccccc3n12	?
Cc1nc2nc(COc3ccccc3)[nH]n2c(=O)c1Cl	-3.4%
CC(=O)c1ccc(OCc2cc(C(=O)N3CC4C[C@@H]5CC3C[C@H](C4)C5)no2)cc1	2.6%
Nc1ccnn1-c1ccccc1	-7.2%
Cc1ccc(OCC(=O)Nc2ccc(OCc3cc(=O)n4c(C)csc4n3)cc2)cc1C	-8.2%
COc1ccc(-c2noc(-c3ccc(N4CCC(C)CC4)c([N+](=O)[O-])c3)n2)cc1OC	3.5%
CCOC(=O)C1CCC(CN(Cc2c(Cl)cccc2Cl)S(=O)(=O)c2ccc(F)c(C)c2)CC1 (configuration not stated)	8.6%
CCOC(=O)c1sc2nccc(OC)c2c1N=CNOC	-13.3%
(cont.)
SMILES	VDR inhibitor
COc1ccccc1N1C(=O)c2cccc3c(Cl)ccc(c23)C1=O	1.8%
O=c1[nH]c(N2CCCCC2)nc2c1CCCC2	6.5%
Cc1onc(C(=O)Nc2ccccc2C(F)(F)F)c1[N+](=O)[O-]	-17.9%
NNC(=O)c1nnn(-c2nonc2N)c1CN1CCCC1	-4.4%
Cc1ccc(CSc2nnc(SCC(=O)N/N=C/C=C/c3ccco3)s2)cc1	-16.9%
O=C(OC1CCCCC1)c1ccc(NC(=O)c2ccco2)cc1	-7.8%
CCCc1cc(=O)oc2c3c(c4c(c12)OC(C)(C)C=C4)OC(C)C(C)C3O (configuration not stated)	-8.3%
Cc1ccc(C)c(N2CCN(C(=O)c3cc4c(=O)n(Cc5ccccc5)ccc4nc3C)CC2)c1	4.1%
Cc1ccc(C)c(N2CCN(CCCNC(=O)Cn3ncc4c5ccccc5n(C)c4c3=O)CC2)c1	1.1%
CC(C)(C)C(=O)NC(=S)Nc1ccccc1N1CCCC1	-12.1%
O=C1CNC(=S)N1Cc1ccccc1Cl	-9.1%
COc1ccc(NC(=O)c2ccc3nc(-c4ccccc4)c(-c4ccccc4)nc3c2)c(OC)c1	6.8%
O=C(CCCc1ccccc1)NCc1cccnc1	2.0%
O=C1CSC(c2cccc([N+](=O)[O-])c2)N1c1ccccc1F (configuration not stated)	-12.6%
CCSc1nnc(NC(=O)CSc2nnc(CNC(=O)c3cc(OC)c(OC)c(OC)c3)o2)s1	-14.4%
Cc1ccc2c(CN3CCN(S(=O)(=O)c4ccc5c(c4)OCCO5)CC3)cc(=O)oc2c1C	1.2%
CN(C(=O)c1ccno1)c1nnc(-c2cnccn2)s1	10.9%
CSCCNC(=O)c1ccc2nc(C3CCCCC3)oc2c1	-4.3%
Cc1cc(C)n2c(=O)c3ccc(Cl)cc3nc2c1C#N	-11.0%
Cn1cc(Cl)c(C(=O)Nc2nc3ccc([N+](=O)[O-])cc3s2)n1	0.4%
Cn1ncc(Cl)c1C(=O)Nc1ccc(CN2CCCCC2)cc1	9.4%
Cc1ccc(S(=O)(=O)N2[C@@H](c3ccc(Cl)c(Cl)c3)C(C(=O)O)=C[C@H]2C(C)(C)C)cc1	?
C=CCN1C=CC(=O)CC1	0.7%
CC(C)(C)NC(=O)C(c1ccco1)N(C(=O)Cn1nnc(-c2ccc(F)cc2)n1)c1cccc(F)c1 (configuration not stated)	-8.7%
COc1ccc(CC(=O)NC2CC2)cc1OC	-15.8%

Among those listed so far, 7 have a furan ring, fused or not:
SMILES	VDR inhibitor
CC(C)(C)NC(=O)C(c1cccs1)N(Cc1cccs1)C(=O)c1ccc(CN2CCOCC2)o1 (configuration not stated)	-3.9%
COc1ccc(-n2nc(C(=O)NCC(=O)NCc3ccco3)c3ccccc3c2=O)c(OC)c1	2.3%
CC1=C(C(=O)Nc2cc(Cl)ccc2C)C(c2ccco2)n2ncnc2N1 (configuration not stated)	6.9%
O=C(Cc1coc2ccc3ccccc3c12)N1CCN(c2ncccn2)CC1	10.6%
Cc1ccc(CSc2nnc(SCC(=O)N/N=C/C=C/c3ccco3)s2)cc1	-16.9%
O=C(OC1CCCCC1)c1ccc(NC(=O)c2ccco2)cc1	-7.8%
CC(C)(C)NC(=O)C(c1ccco1)N(C(=O)Cn1nnc(-c2ccc(F)cc2)n1)c1cccc(F)c1 (configuration not stated)	-8.7%

Continuation:
SMILES	VDR inhibitor
O=C(NN1C(=O)C2C3c4ccccc4C(c4ccccc43)[C@@H]2C1=O)c1ccccc1 (some centres not stated)	-19.6%
Cc1cc(C(=O)Nc2sc3c(c2C#N)CCCC3)no1	-15.8%
CN(C)CCNc1nc(-c2ccccc2)nnc1C(F)(F)F	4.1%
Cc1cc(=O)oc(C)c1C(=O)Nc1ccc2nsnc2c1	13.5%
Clc1ccccc1-c1cc(NCc2ccccc2)ncn1	44.7µM*
COc1cc(OC)c(NC(=O)CSC2=Nc3ccccc3N=C(c3ccc(F)cc3)C2)cc1Cl	8.4%
O=[N+]([O-])c1cc(S(=O)(=O)N2CCCC2)ccc1N/N=C/c1cccs1	-11.0%
NC(=O)c1cc(S(=O)(=O)NCc2ccc(Br)cc2)cs1	-1.1%&11.4%
O=C(NC1CC2CCCC(C1)N2C(=O)Nc1ccc(F)cc1)c1ccccc1 (configuration not stated)	-19.3%
CC1(C)CC(=O)C=C(C(=O)N2CCCC(C(=O)c3cccc(C(F)(F)F)c3)C2)O1 (configuration not stated)	-9.1%
COC(=O)c1sc(NC(=O)CSc2nc3cccnc3n2C2CCCCC2)nc1C	2.1%
CN1CCN(C(=O)CCn2nc(-c3ccccc3)c3ccccc3c2=O)CC1	-0.2%
CCCN(CCC)c1nn2c(=O)c(C(=O)NCc3cc(Br)ccc3OC)cnc2s1	11.4%
CCN1C(=O)N[C@@H](c2ccco2)C(C(=O)OC)=C1C	-2.8%
COc1cccc(CN2CC(C(=O)N(C)Cc3[nH]c4ccccc4c3C)CCC2=O)c1 (configuration not stated)	0.5%
CCCNC(=O)COc1coc(CN2CCN(c3cccc(Cl)c3)CC2)cc1=O	-3.9%
Cc1cc2ncn(C(=O)c3ccc4c(c3)OCO4)c2cc1C	1.1%
Cn1c(=O)c2c(O)cc(=O)n(-c3ccccc3)c2n(C)c1=O	16.8%
O=C(c1cc2ccccc2o1)N1CCCC1	-4.4%
C=CCn1c(CCc2ccccc2)nnc1SCC(N)=O	-6.3%
Cc1ccc(C)c(N(C(=O)c2snc(C(N)=O)c2N)C(C(=O)NCC2CCCO2)c2cccs2)c1 (configuration not stated)	79.4µM*
CC(C)Cc1cc(CNC(=O)C2CCC(=O)N(Cc3cccc(C(F)(F)F)c3)C2)on1 (configuration not stated)	-7.1%
Cc1ccc(-n2c(CSc3nc(C)cc(C)n3)nnc2SCC(=O)Nc2nccs2)cc1	-18.4%
Cc1cc(NC(=O)C2CC(c3ccccc3Cl)=NO2)no1 (configuration not stated)	4.5%
Cc1ccc(C)c(N2CCN(C(=O)c3cc4sccc4n3C)CC2)c1	1.2%
The results go on.
SMILES	VDR inhibitor
O=S(=O)(Nc1ccc(S(=O)(=O)Nc2nccs2)cc1)c1ccc2c(c1)OCCO2	7.9%
Brc1ccccc1C1CC(c2ccccc2)=Nc2ccccc2N1 (configuration not stated)	-2.3%
O=C(CN1CCC(N2CCCCC2)CC1)N1CCCc2ccccc21	2.9%
COc1cccc(C2=NN(C(=O)c3ccccc3)C(O)(C(F)(F)F)C2)c1 (configuration not stated)	-11.5%
COc1ccc(CNC(=O)CCc2c(C)c3cc4c(C)coc4cc3oc2=O)cc1	14.6%
CCn1cc(C(=O)NCc2ccco2)c(=O)c2cc(F)c(N3CCN(C(=O)c4ccco4)CC3)cc21	4.8%
Cn1c(SCC(=O)NC(=O)NCc2ccco2)nnc1-c1ccccc1	9.4%
Oc1ccc(CCNc2ncnc3ccc(Cl)cc23)cc1	-22.5%
Cc1cccc(NC(=S)NC(=O)c2oc3ccccc3c2C)n1	-8.2%
COc1ccc(NC(=O)Nc2ccccc2F)cc1	1.6%
O=C(COC(=O)CCc1ccc(S(=O)(=O)N2CCOCC2)cc1)Nc1ccc(Cl)cn1	-2.3%
COc1ccc2c(c1)O[C@@H](c1cccc(C(F)(F)F)c1)[C@H](OC(=O)N[C@H]1CCCc3ccccc31)C2=O	-2.0%
CC(C)CCNC(=O)CCC(=O)NNc1nc2ccccc2c2nc(-c3ccccc3)nn12	-13.7%&4.7%
COc1cc(Cl)c(C)cc1NC(=O)Cn1ncc2c3ccccc3n(Cc3ccccc3)c2c1=O	4.6%
CCOc1ccc(C2/C(=C(/O)c3ccc(OC)cc3)C(=O)C(=O)N2c2cc(C)on2)cc1OC (configuration not stated)	-0.8%
Fc1ccc(C2CC(c3ccccc3)n3ncnc3N2)cc1 (configuration not stated)	7.8%
CCC(C(=O)NCCc1ccc(C)cc1)n1nc(C)c2c(C)n(-c3ccccc3)nc2c1=O (configuration not stated)	1.9%
C/C(=N\NC(=O)c1ccccc1)c1nc2ccccc2n1C	14.3%
N#Cc1nc(-c2ccco2)oc1N1CCC(Cc2ccccc2)CC1	-4.8%
O=C(CN1C(=O)CSc2ccccc21)N/N=C/c1ccco1	-1.7%
C1CSC2(N1)C1CC3CC(C1)CC2C3 (configuration not stated)	-9.0%
CC(C)(C)c1ccc(-c2cc(N)n[nH]2)cc1	9.8%
CCOP(=O)(OCC)C(C)(C)NC(=O)c1cc([N+](=O)[O-])cc([N+](=O)[O-])c1	3.6%
CCC(=O)OCC(=O)N=c1sccn1Cc1ccccc1Cl	-19.5%
CCCOC(=O)C1=C(C)N(C)C(=O)NC1c1cc2c(cc1[N+](=O)[O-])OCO2 (configuration not stated)	-6.4%
CCOc1ccc(NC(=O)CSc2nc3ccccc3c(=O)n2Cc2cccs2)cc1	4.5%
CC(=O)c1cccc(NC(=O)CN2C(=O)COc3ccc(Cl)cc32)c1	-1.9%
